Assay outcomes as filed in PubChem BioAssay.
RanGTP-Imp inh: disruptors of Ran-importin-beta complex formation – biochemical, FRET, CFP-Ran, YFP-importin-beta, homogeneous, primary screen | inhibition, % (concentration not given with the values) | 300,000 compounds, 1.1% hits | cell-free CFP-Ran/YFP-importin-beta FRET ratio;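 active = most replicates above 15%; inconclusive = exactly half above 15%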;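 also: 0% = DMSO wells and 100% = Ran loaded with GDP instead of GTP; wells of about 40 µL received 100 nL stock; the first replicate is given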
Calb FLC: C. albicans growth modulation with fluconazole | C. albicans CaCi-2 (fluconazole-resistant clinical isolate) + fluconazole, Alamar Blue growth, 48 h | growth inhibition, % (no concentration beside the values) | 300,000 compounds, 0.57% hits | AID 1979;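 active = most replicates above 75%; inconclusive = exactly half above 75%; inactive = most below 75%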;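 also: all wells also contain fluconazole at 8 µg/ml as a sub-toxic cotreatment; 0% = median of DMSO wells and 100% = median of geldanamycin control wells; wells of about 8 µL received 7.5 nL stock; the first replicate is given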
AF4-AF9 inh: inhibitors of human MLL-AF4/AF9 interaction; P42568; AlphaScreen, biotin-AF4 peptide binding to FLAG-AF9; inhibition, % at 10 µM; 350,000 compounds, 0.47% hits; AID 651704;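 active = every replicate reaching a set inhibition limit, whatever the replicate mean, cut at about 25% in these data; inconclusive = mean inhibition reaches that limit but some replicates miss it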;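 also: 0% = plate neutral control median and 100% = total signal loss; the record names both 10 and 1 µM as test concentration; the first replicate is given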
Target sequence (P42568 whole entry, looked up): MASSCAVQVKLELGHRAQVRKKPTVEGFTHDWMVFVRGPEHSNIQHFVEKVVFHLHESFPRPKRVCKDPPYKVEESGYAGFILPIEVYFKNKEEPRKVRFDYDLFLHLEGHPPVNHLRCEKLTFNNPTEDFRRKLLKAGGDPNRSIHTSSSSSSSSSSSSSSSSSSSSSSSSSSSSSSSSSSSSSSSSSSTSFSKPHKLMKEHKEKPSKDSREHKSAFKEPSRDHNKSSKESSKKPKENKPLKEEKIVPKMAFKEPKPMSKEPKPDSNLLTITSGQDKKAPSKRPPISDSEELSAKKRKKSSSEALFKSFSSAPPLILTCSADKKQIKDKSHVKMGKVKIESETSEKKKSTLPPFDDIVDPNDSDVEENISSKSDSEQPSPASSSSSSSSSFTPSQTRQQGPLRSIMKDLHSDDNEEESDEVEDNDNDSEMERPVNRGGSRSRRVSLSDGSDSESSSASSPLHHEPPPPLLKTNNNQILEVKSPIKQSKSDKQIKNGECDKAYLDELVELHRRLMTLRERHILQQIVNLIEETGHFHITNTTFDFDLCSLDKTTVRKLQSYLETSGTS
FGF22 binding: shifts melting point of recombinant human FGF22 | Q9HCT0 | 340,000 compounds, 1.5% hits | AID 651658 | recombinant FGF22 thermal shift, SYPRO orange fluorescence; percent of sucrose octasulfate shift, DMSO zero | calls only at 9.99 µM;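 active = melting point raised past a set limit in the mean and every replicate; inconclusive = no clear call; three in four hits are not shown here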
Target sequence (Q9HCT0 whole entry, looked up): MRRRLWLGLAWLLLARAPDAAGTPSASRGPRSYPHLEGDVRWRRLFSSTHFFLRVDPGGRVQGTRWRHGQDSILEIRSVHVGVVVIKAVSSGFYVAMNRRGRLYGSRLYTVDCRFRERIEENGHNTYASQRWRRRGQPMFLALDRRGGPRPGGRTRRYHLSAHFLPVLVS
Ecoli rRNA inh: inhibitors of bacterial rRNA selective over humanized ribosomes | E. coli WT GFP vs humanized-ribosome RFP mutants, fluorescence, 24 h; hits give low values; DMSO median 0, no signal -100 | GFP signal change (wild-type ribosome), % (no concentration beside the values) | 350,000 compounds, 1.6% hits | AID 720706;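 active = significant combined selectivity score with lowered wild-type GFP, culture density cut under 30%, mutant RFP and density less affected; inactive = any of these conditions unmet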; also: one replicate is shown; some compounds called inactive have numbers as strong as hits
Beta apoptosis: beta cell apoptosis inhibition; protection from apoptosis, % (no concentration beside the values); 300,000 compounds, 0.8% hits; INS-1E cytokine-induced death, ATP luminescence, 48 h; percent of positive-control rescue, neutral wells zero;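 active = all replicates at 75% or more, or half of them and the mean; inconclusive = half reach 75% but not the mean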;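 also: 0% = cytokine-treated negative control wells and 100% = positive control rescue; higher means more ATP so stronger rescue from cytokine killing; wells of about 40 µL received 100 nL stock; the first replicate is given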
T cruzi inh: T. cruzi replication inhibition. T. cruzi beta-gal in NIH3T3, luminescence, 90 h. 300,000 compounds, 1.4% hits. inhibition, % (no concentration beside the values);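 active = mean inhibition across valid replicates above about 55%, limit read from the data; inconclusive = mean below that limit but half or more replicates reach it; inactive = mean below it, under half of replicates reach it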;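 also: signal also drops with host cell toxicity which is not excluded here; 0% = plate median of DMSO wells and 100% = zero luminescence signal; higher percent means less beta-gal luminescence so fewer parasites; stock transfer was 50 nL into about 50 µL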
ALR H2O2 inh: human ALR oxidase inhibition via reduced H2O2 | P55789 | purified ALR, DTT oxidation, H2O2 HRP-luminol luminescence | inhibition, % (no concentration beside the values) | 290,000 compounds, 3.8% hits;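 active = mean and each replicate at 75% or more; inconclusive = only one of the two met; inactive = neither met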;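 also: stock transfer was 7.5 nL into about 7.5 µL; 0% = neutral wells and 100% = wells with inactivated enzyme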
Target sequence (P55789 whole entry, looked up): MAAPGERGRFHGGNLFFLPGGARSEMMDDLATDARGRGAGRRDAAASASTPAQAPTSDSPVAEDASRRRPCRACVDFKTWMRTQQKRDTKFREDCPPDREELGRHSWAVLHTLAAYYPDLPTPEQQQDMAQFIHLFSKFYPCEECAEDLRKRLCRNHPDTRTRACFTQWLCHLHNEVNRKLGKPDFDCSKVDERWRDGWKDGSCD
Ecoli rRNA inh OD600: also measured in Ecoli rRNA inh; calls as there; OD600 change, %; measured here: OD600 growth;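 optical density of the mix in the first replicate; 0 = DMSO median and -100 = no signal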
Ecoli rRNA inh RFP: also measured in Ecoli rRNA inh; calls as there; RFP signal change, %; measured here: RFP humanized mutant strains;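 first replicate; 0 = DMSO median and -100 = no signal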
An asterisk follows results filed as active; i = inactive; u = inconclusive; x = not tested or not shown.

SMILES | RanGTP-Imp inh | Calb FLC | AF4-AF9 inh | FGF22 binding | Ecoli rRNA inh | Ecoli rRNA inh OD600 | Ecoli rRNA inh RFP | Beta apoptosis | T cruzi inh | ALR H2O2 inh
O=C(NNC1=Nc2ccccc2SC1)c1ccc(Cl)cc1 | -2.7 | -3 | 2.1 | i | x | x | x | 34 | 33 | -8
Cc1c(C(=O)N(C)Cc2cccc(F)c2)oc2c(Cl)cccc12 | 1.3 | 10 | -5.6 | i | -52 | -66 | -15 | -6 | 4 | -11
CCOc1ccc(CCNC(=O)c2ccc(CS(=O)Cc3ccc(Cl)cc3)o2)cc1OCC (stereo not given) | 1.5 | -5 | -1.4 | i | -32* | -23* | -5.9* | -2 | 24 | -2
Cc1ccc(C)c2[nH]c(=O)c(CCNS(=O)(=O)c3ccccc3)cc12 | 0.9 | -4 | 0.6 | i | -3 | -10 | 1.2 | -4 | -16 | -3
Nc1ncnc(Nc2ccc(S(N)(=O)=O)cc2)n1 | 1.7 | 5 | -4.3 | i | 6 | 2 | -2.2 | -1 | -11 | -2
CN1CCN(c2ccccc2NC(=O)c2ccc(-c3cccc(Cl)c3)o2)CC1 | 0.5 | -11 | 15 | i | -55 | -72 | -16 | 6 | 27 | -13
N#C/C(=C\c1c(N2CCCCCC2)nc2ccccn2c1=O)C(=O)NC1CCS(=O)(=O)C1 (stereo not given) | 0.2 | 2 | x | x | x | x | x | -8 | 8 | x
Cc1ccc(NC(=O)CCn2nnc3ccccc32)c(C)c1 | 4.1 | -3 | -3.6 | x | 12 | 17 | 1.1 | x | -7 | -39
O=C(CC1CCCC1)Nc1ccc(Cl)c(S(=O)(=O)N2CCOCC2)c1 | x | x | -0.7 | i | -2 | -28 | 7.5 | -11 | x | -1
CC(=O)COC(=O)C1CCN(S(=O)(=O)c2cc([N+](=O)[O-])ccc2Cl)CC1 | -0.9 | -5 | -0.1 | i | -1 | 1 | -9.1 | -8 | -18 | -19
CCCC(=O)c1cn(CC(=O)OC)c2ccccc12 | 0.3 | 3 | x | x | x | x | x | -5 | 0 | -1
O=C(Nc1nc(-c2cc(F)ccc2F)cs1)C1=COCCO1 | -0.4 | -4 | 0.6 | i | -3 | 8 | -3.2 | 15 | 7 | -13
CC1CCCCN1S(=O)(=O)c1ccc(N(C(=O)c2cnccn2)C(C(=O)NC2CCCCC2)c2cccs2)cc1 (stereo not given) | 3.8 | 2 | x | x | x | x | x | -4 | 12 | -1
Nc1cc(-c2cccc(Br)c2)nn1Cc1ccccc1 | 3.1 | -13 | 3.4 | i | 3 | 16 | -0.4 | -15 | 12 | -1
O=C(CNC(=O)c1ccc(Br)o1)Nc1ccccc1 | -2.9 | 3 | -2.1 | i | 8 | 10 | -1.5 | -1 | -4 | -4
O=C(Nc1ccc(N2CCN(C(=O)c3ccco3)CC2)cc1)c1ccco1 | -4.2 | 8 | -2.3 | i | 14 | 6 | 1.3 | 0 | 1 | -49
CC1CC1C(=O)OCC(=O)NC(=O)c1ccc(C(C)(C)C)cc1 (stereo not given) | x | x | -1.6 | i | 17 | 10 | 3.3 | -5 | x | -4
O=C(Cc1ccc(F)cc1)Nc1c(C(=O)N2CCN(c3ncccn3)CC2)oc2ccccc12 | -0.4 | -1 | -4.4 | i | -2 | 6 | -2.0 | 6 | 3 | -2
Cc1ccc2nc(N3C(=O)C(O)=C(C(=O)c4ccco4)C3c3ccc(O)cc3)sc2c1 (stereo not given) | 2.6 | 21 | 0.5 | i | 2 | 3 | -0.9 | -4 | -20 | x
Cc1nn(-c2ccccc2)c(C)c1/C=C/C(=O)OC(C)C(N)=O (stereo not given) | -0.4 | 0 | 1.2 | i | 0 | -3 | -0.3 | -9 | 0 | -2
O=C(C1CCCN(Cc2cc(Br)ccc2O)C1)N1CCCCC1 (stereo not given) | 1.9 | -31 | 0.1 | i | 7 | -1 | 2.1 | 1 | -5 | 34
COc1ccc(/C=N/NC(=O)c2nn(-c3ccc(C)c(C)c3)c(=O)c3ccccc23)cc1 | -2.2 | 1 | x | x | x | x | x | -10 | x | -8
CCOC(=O)c1cc(CC)sc1NC(=O)c1ccc([N+](=O)[O-])c(N2CCOCC2)c1 | 2.8 | 9 | 2.3 | x | 11 | 15 | 3.5 | -3 | -16 | x
C/C(=N\NC(=O)c1ccccc1Cl)c1ccccn1 | 0.8 | 7 | -4.2 | i | 12 | 13 | 1.0 | 93* | 55* | -6
Cc1cc(C)c(NC(=O)/C=C\C(=O)O)c([N+](=O)[O-])c1 | -1.7 | 1 | x | x | x | x | x | -2 | -12 | 3
O=C(c1ccco1)N1CCN=C1SCc1ccccc1Cl | 2.1 | 13 | -0.5 | i | 12 | 10 | 3.5 | x | 20 | 99*
COc1ccccc1NS(=O)(=O)c1cc(C(=O)NCCC(C)C)ccc1F | 1.5 | 27 | -2.4 | i | 6 | 14 | -2.7 | -4 | 2 | -20
COc1ccccc1NC(=O)C1CC(C)OC1=O (stereo not given) | 1.0 | -4 | 1.6 | i | 10 | 7 | -0.3 | -3 | x | 42
O=C(NC1CCCCC1)c1cc(-c2ccccc2Cl)on1 | 7.3 | -26 | 0.5 | i | 2 | -1 | -0.4 | x | 17 | -5
CC(=O)Nc1cccc(C(=O)N2CCN(S(=O)(=O)Cc3ccccc3)CC2)c1 | x | x | 0.1 | i | 9 | 15 | 9.3 | -3 | x | 0
Nc1cc(C(=O)OCC(=O)NCCNC(=O)COC(=O)c2ccc(Cl)c(N)c2)ccc1Cl | -5.9 | 0 | -1.3 | i | -3 | -6 | -0.9 | -10 | -6 | -6
CN(CC(=O)Nc1ccc(F)cc1)C(=O)COC(=O)/C=C/c1ccccc1[N+](=O)[O-] | x | x | 1.5 | i | -8 | -10 | -2.3 | 0 | x | -1
CC(C)(CC(=O)O)CC(=O)Nc1cc(C(F)(F)F)cc(C(F)(F)F)c1 | 3.3 | 3 | -3.4 | i | 0 | 5 | -1.0 | -9 | 8 | 6
COc1ccc(NC(=O)CSc2nnc(C3CCCCC3)n2N)cc1 | 6.2 | -4 | -6.8 | i | 0 | 1 | 2.4 | 1 | 6 | -41
COc1ccc(NC(=O)Cn2c(-c3ccccc3)cn(-c3ccc(C)cc3)c2=O)cc1 | 4.6 | -5 | x | x | x | x | x | -6 | -3 | -14
CC(C)(C)c1ccc(NC(=O)NCc2ccco2)cc1 | 0.4 | -13 | 6.9 | i | -2 | -4 | -0.9 | 13 | 11 | 1
O=C(COc1ccc(CO)cc1Cl)Nc1ccc(F)cc1 | -2.3 | 0 | x | x | x | x | x | 4 | -12 | -6
Cc1ccc(Oc2ncnc(N)c2[N+](=O)[O-])cc1C | 10 | 32 | 0.9 | i | 17 | 1 | -0.8 | -7 | -3 | 0
Cc1oc2c(cc(NS(=O)(=O)c3cccs3)c3ccccc32)c1C(=O)OC(C)C | 1.2 | 25 | x | x | x | x | x | -1 | 18 | -24
CCc1nnc(NC(=O)CSc2nnc(-c3ccccc3O)n2-c2ccc(C)cc2C)s1 | 2.4 | -3 | x | x | x | x | x | 5 | 4 | -8

Brought forward from above: five entries; new compounds follow.
SMILES | RanGTP-Imp inh | Calb FLC | AF4-AF9 inh | FGF22 binding | Ecoli rRNA inh | Ecoli rRNA inh OD600 | Ecoli rRNA inh RFP | Beta apoptosis | T cruzi inh | ALR H2O2 inh
CC(C)(C)c1ccc(NC(=O)NCc2ccco2)cc1 | 0.4 | -13 | 6.9 | i | -2 | -4 | -0.9 | 13 | 11 | 1
O=C(COc1ccc(CO)cc1Cl)Nc1ccc(F)cc1 | -2.3 | 0 | x | x | x | x | x | 4 | -12 | -6
Cc1ccc(Oc2ncnc(N)c2[N+](=O)[O-])cc1C | 10 | 32 | 0.9 | i | 17 | 1 | -0.8 | -7 | -3 | 0
Cc1oc2c(cc(NS(=O)(=O)c3cccs3)c3ccccc32)c1C(=O)OC(C)C | 1.2 | 25 | x | x | x | x | x | -1 | 18 | -24
CCc1nnc(NC(=O)CSc2nnc(-c3ccccc3O)n2-c2ccc(C)cc2C)s1 | 2.4 | -3 | x | x | x | x | x | 5 | 4 | -8
COc1ccc(CCN2C(=O)N(c3ccc(OC)cc3)C(=O)C2CC(=O)Nc2ccccc2)cc1 (stereo not given) | 3.1 | -5 | 0.7 | i | -18 | -23 | -1.6 | 0 | 13 | -3
O=C(COc1ncnc2ccccc12)NCc1ccc2c(c1)OCO2 | 5.3 | -2 | x | x | x | x | x | -2 | -5 | -3
CCCCOC(=O)c1ccc(NC(=O)c2ccccc2OC)cc1 | u | 59 | -10 | i | -4 | -19 | -23 | 7 | 13 | 2
N#Cc1ccccc1S(=O)(=O)N1CCN(CC(=O)NCC2(N3CCOCC3)CCCCC2)CC1 | x | x | 3.6 | i | 4 | 6 | 1.0 | -12 | x | x
Cc1ccc(C)c(C(=O)COC(=O)CCN2C(=O)C3C4CCC(C4)C3C2=O)c1 (stereo not given) | u | 1 | -1.9 | i | -7 | -8 | 5.7 | x | -12 | x
CCNC(=O)CN(CCc1ccccc1)S(C)(=O)=O | 3.8 | -1 | x | x | x | x | x | -5 | -11 | 1
CCOC(=O)C1C(=O)C=C(c2ccc([N+](=O)[O-])cc2)CC1c1ccccc1 (stereo not given) | 3.5 | -9 | x | x | x | x | x | 3 | 22 | -6
CCC(=O)Nc1cccc(NC(=O)CSc2nnnn2Cc2ccccc2)c1 | 3.0 | -1 | x | x | x | x | x | -2 | 2 | -17
COc1cc(NC(=O)c2ccnn2C)c(OC)cc1Cl | x | -14 | 0.0 | i | 2 | 7 | -2.6 | -3 | -11 | -6
CC(=O)NCCc1ccc(S(=O)(=O)N2CCN(c3nc(-c4ccccc4)c(C)s3)CC2)cc1 | -0.7 | 2 | -7.2 | i | -3 | 2 | -0.6 | 2 | 29 | 2
Cc1csc(NC(=O)CSc2nc3ccccc3s2)n1 | 1.6 | 3 | x | x | x | x | x | -6 | -8 | 97*
O=C(COC(=O)CSc1ccccc1)NCCNC(=O)COC(=O)CSc1ccccc1 | 1.5 | x | -20 | i | 5 | 9 | 0.1 | -3 | -5 | 1
Cc1ccc(NC(=O)COc2nc(C)cs2)cc1 | 0.5 | -13 | x | x | 12 | 4 | 0.3 | -9 | -5 | -38
COC(=O)C1=C(C)NC(=O)CC1c1ccccc1OC (stereo not given) | -2.1 | -2 | 0.7 | i | 16 | 10 | 0.3 | 6 | -7 | 0
CCOC(=O)c1ccc(NS(=O)(=O)c2cc(C)ccc2OC)cc1 | -0.3 | -4 | x | x | x | x | x | 5 | -1 | -13
Cc1ccccc1-n1nc2c(c1NC(=O)c1c(-c3ccccc3Cl)noc1C)CS(=O)(=O)C2 | 4.7 | -12 | x | x | x | x | x | 0 | -6 | -1

These rows are one share of the data (hit frequency here may not be typical).
